Screening results deposited in PubChem BioAssay by Fisher Drug Discovery Resource Center.
NPYLR7 agonist = mosquito NPYLR7 agonism. HEK293T NPYLR7/Galpha15, GCaMP6s calcium fluorescence. activation, % at 10 µM. 270,000 compounds, 0.15% hits; in the data active = activation above about 40%;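 note: 0% = vehicle and 100% = reference agonist at the receptor; some compounds past the cut are filed as inactive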
NPYLR7 agonist max-min = further read-out of NPYLR7 agonist, marked with its call; activation, %; measured here: Max-Min RFU normalised activation; some inactives read as strong as hits;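 span of the calcium signal over five minutes; 0% = vehicle and 100% = native peptide agonist; compound fluorescence can raise it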
Starred values were filed as active, the others as inactive; & = joins results of further samples. An excerpt; rates above refer to the full screens.

mol,NPYLR7 agonist,NPYLR7 agonist max-min
CC(CO)NC(=O)c1cc(COc2cccc(C(F)(F)F)c2)[nH]n1 (stereo not drawn),20,11
O=C(c1cccnc1-c1cccc2ncccc12)N1CCCCC1,4,-1
COCCOc1nc(-c2ccccc2F)n(-c2ccc(NC(=O)c3cccs3)cc2)n1,5,18
O=C(Nc1nnc(SCc2ccccc2C(F)(F)F)s1)C1CCC1,6,7
COC(=O)c1cccc(NC(=O)N2CC(=O)N3CC(C)c4ccccc4C3C2)c1 (stereo not drawn),26,14
Nc1nonc1-c1nnnn1CC(=O)N1CCOCC1,3,1
COc1cc(-c2cc(C(=O)N(C)CCc3ccccn3)c3ccccc3n2)cc(OC)c1OC,0,11
CCCNC(=O)c1nnc2n1CCN(C(=O)C1CC1)C2,6,3
COCC(=O)Nc1ccc(Cl)cc1-c1nc2ccccc2[nH]1,0,4
COc1cccc(CCC(=O)N2CCc3c(CN4CCCC4)cccc32)c1OC,-7,-9

The list goes on (three carried over from the part before).
mol,NPYLR7 agonist,NPYLR7 agonist max-min
CCCNC(=O)c1nnc2n1CCN(C(=O)C1CC1)C2,6,3
COCC(=O)Nc1ccc(Cl)cc1-c1nc2ccccc2[nH]1,0,4
COc1cccc(CCC(=O)N2CCc3c(CN4CCCC4)cccc32)c1OC,-7,-9
CCNC(=O)c1cn(CCc2ccccc2)cc(C(=O)N2CCCC(c3ccccc3)C2)c1=O (stereo not drawn),17,7
CCOC(=O)CNC(=O)N1CCN(c2nc(C(C)C)nc3sc(C)c(C)c23)CC1,-17,-8
O=C(C1=Cc2cc(Cl)ccc2OC1)N1CC[C@H](CO)[C@@H](O)C1,-4,-4
Cc1nc(C(F)(F)F)ccc1C(=O)N1CCN(c2nc3nccc(-c4ccc(C5CCCCC5)cc4)n3n2)CC1,5,0
Cc1ccc(-c2onc3c2CCCC3)cc1NC(=O)c1c(Cl)cc(Cl)cc1Cl,1,-6
O=C(C1CCCCC1)N(Cc1cccnc1)c1nc2ccc(F)cc2s1,2,5
CCCCn1ccnc1-c1c(C)cc(O)cc1C,0,-6
CCOC(=O)N1CCN(C(c2cccnc2)c2c(O)cc(C)n(Cc3ccco3)c2=O)CC1 (stereo not drawn),8,4
CCCCCCc1ccc(C(=O)N2CCN(C(=O)CSc3nnc(-c4ccco4)n3-c3cccc(C)c3)CC2C)cc1 (stereo not drawn),15,8
COc1cccc(C(=O)Nc2cc(C3CC3)nn2-c2nc(C)cc(=O)[nH]2)c1OC,3,1
Clc1ccc(-c2nnc(COc3ccc4c(c3)OCO4)o2)cc1,3,1
CC1(C(=O)Nc2ccc3nc[nH]c3c2)CCN1C(=O)C1(c2ccccc2)CC1 (stereo not drawn),5,14
Cc1ccc(CN(Cc2ccc(F)cc2)C(=O)CN(CCN2CCCCC2)C(=O)Nc2cccc(F)c2)s1,0,7
CCOC(=O)C1CCN(C(c2ccc(OC)cc2)C2Sc3nc(-c4ccco4)nn3C2=O)CC1 (stereo not drawn),2,0
CCOC(=O)c1cc(-c2cccc(NC(=O)c3nnc(-c4ccccc4)o3)c2)n(-c2ccccc2C)n1,3,1
CC(NC(=O)Cc1csc2nc(-c3ccc(F)cc3)cn12)c1ccc(F)cc1 (stereo not drawn),0,-5
Cc1cc(=O)[nH]c(-n2nc(C)c(CCC(=O)NCCc3ccccc3)c2C)n1,3,2
Cc1ccc(NC(=O)N2CCC(C(NC(=O)c3ccc(C)cc3)C(=O)N3CCCCC3C)CC2)cc1 (stereo not drawn),6,10
COc1cc(CNCC2CCN(CCO)CC2)c2c(c1)CC(C)O2 (stereo not drawn),1,-3
O=C(/C=C/c1ccc(O)c(O)c1)OCCc1ccccc1,-4&9,-10&-8
COc1ccc(OC)c(-n2c(CNC(=O)c3ccco3)nnc2SCC(=O)N2CCc3ccccc32)c1,6,2
CN(C(=O)c1cccc(NC(=O)NC2CC2)c1)c1ccccc1F,7,2
OC(CN1CCCC1CCc1ccccc1)c1ccc(F)c(F)c1 (stereo not drawn),1,1
Cc1csc2nc(CN3CCN(Cc4cccs4)CC3)cc(=O)n12,-3,1
C=CCNC(=O)CSc1ccnc2c1c(=O)n(C)c(=O)n2C,7,12
CCCCc1ccc(C(=O)N2CCSC2c2cc(OC)cc(OC)c2)cc1 (stereo not drawn),0,4
Cc1ccccc1C(=O)N1CCN(C(C(=O)NCCc2ccccn2)C2CCCC2)CC1 (stereo not drawn),-5,-1
Fc1ccc(Cn2ncc3c2CN(c2nccc(CCC(F)(F)F)n2)C3)cc1,-4,-1
O=C1NC(c2ccccc2)=C(C(=O)C(F)(F)F)C(c2ccccc2C(F)(F)F)N1 (stereo not drawn),5,19
CCOC(=O)C1(CCCc2ccccc2)CCN(C(=O)c2cn3ccc(C)cc3n2)CC1,6,4
CC(Cn1cncn1)NC1CCN(c2cccc(-c3ccc(F)cc3)c2)CC1 (stereo not drawn),1,-2
COc1ccccc1C(=O)N(CCN1CCOCC1)CC(=O)N(Cc1ccccc1)Cc1ccco1,-7,-2
Cc1ccc(-n2nc(C(C)(C)C)cc2NC(=O)Nc2cccc(F)c2)cc1,-6,-14
O=C(NCc1nnc(SCc2ccccc2)n1-c1cc(Cl)ccc1Cl)C1C[C@H]1c1ccccc1 (stereo partly drawn),20,23
Cc1nn(-c2ccccc2)c(C)c1S(=O)(=O)N1CCn2cncc2C1,-1,-4
Cc1cccc(CN2C(=O)C3(c4ccccc42)c2c(cc(C)n(C)c2=O)OC(=N)C3C#N)c1 (stereo not drawn),-1,-5
CC(NC(=O)C1CCC(C(C)(C)C)CC1)c1ccc(S(N)(=O)=O)cc1 (stereo not drawn),1,-2
Cc1oc(-c2cccc(C(F)(F)F)c2)nc1CN1[C@@H]2CC[C@H]1CC(O)C2 (stereo partly drawn),9,0
Cc1cc(C)n(CC(C)CNC(=O)CCCn2c(C)nc3ccccc3c2=O)n1 (stereo not drawn),-2,-1
Cc1cc2c(cc1C)NC(CC(=O)NC(N)=O)C(=O)N2 (stereo not drawn),4,2
COc1ccc(S(=O)(=O)Oc2ccccc2CN(CCN(C)C)C(=O)c2ccco2)cc1,14,22
O=C(CC1C=CS(=O)(=O)C1)N1CCC2(CC1)C(=O)Nc1ccccc12 (stereo not drawn),0,-2
CCCCCCCC(=O)Nc1c(-c2cccc(F)c2)nc2ccccn12,-3,3
Cc1ccccc1NC(=O)c1c(NC(=O)Cc2ccccc2)sc2c1CCC(C)C2 (stereo not drawn),1,4
NCCc1nc(NCCn2nc(-c3ccccc3)ccc2=O)c2ccccc2n1,10,8
Cc1cccc(N(C(=O)c2cnc3n(c2=O)CCS3)C2CCCCC2)c1,-1,-4
Cc1ccc(-c2c(C)nn3c(N4CCOCC4)cc(C)nc23)cc1,2,4
CC(C)(C)c1ccc(C2SCC(=O)N2CCC(=O)NC2CC2)cc1 (stereo not drawn),1,-8
Brc1ccc(Br)c2cnccc12,19,7
COc1ccc(N(C)S(=O)(=O)c2ccc(OC)c(N3CCN(C(=O)C=C(C)C)CC3)c2)cc1,0,-1

(list continues)
mol,NPYLR7 agonist,NPYLR7 agonist max-min
Cc1cccnc1C(NC(=O)C1CCN(Cc2cccc(C(F)(F)F)c2)CC1)c1ccc(Cl)cc1 (stereo not drawn),13,2
Cc1nc(C(C)C)ncc1C(=O)N1CCC(Cc2cccc(C(=O)O)c2)C1 (stereo not drawn),7,-2
Sc1ccc2c(c1)OCCCO2,0,7
COCCN(Cc1ccc(OC)c(OS(=O)(=O)c2ccc(F)cc2)c1)C(=O)c1cccs1,3,9
Cc1[nH]ncc1C(=O)Nc1ccc(N2CCOCC2C)cc1 (stereo not drawn),2,-8
O=C(O)Cc1ccc(S(=O)(=O)Cl)cc1,7,3
Cc1cccc2sc(N(CCN3CCOCC3)C(=O)c3cccc([N+](=O)[O-])c3)nc12,14,5
CCCCCCNC(=O)CC(c1cccc(OC)c1OC)c1c[nH]c2c(CC)cccc12 (stereo not drawn),13,15
Cc1ccccc1N1CCN([C@H]2[C@H](O)C[C@@H]3CC(C)(C)OC[C@]32O)CC1,-5,2
C=CCNC(=O)C(NC(=O)c1cccc(C)c1)C1CCN(C(=O)c2cccc(Br)c2)CC1 (stereo not drawn),-3,6
COCCCN(CC(=O)Nc1cc(C(C)(C)C)nn1-c1ccc(C)cc1)C(=O)Nc1cccc(Cl)c1Cl,19,25
Cc1cc2c(cnc3ncnn32)c(=O)n1NC(=O)c1cccnc1,6,7
Cc1cc(C(F)(F)F)nc(CCNc2nc(C)nc3c2cnn3C)n1,-4,-5
O=C(Nc1nnc(-c2cccc(Br)c2)s1)C1CCCN1 (stereo not drawn),0,-6
CCn1c(C2CC(=O)N(c3ccccc3Cl)C2)nc2ccccc21 (stereo not drawn),6,7
CCOc1ccccc1C(=O)Nc1ccc(N2CCN(C(=O)c3ccc(C(=O)OC)cc3)CC2)nc1,1,-3
CCOC(=O)Cc1ccccc1NC(=O)NCc1ccc(F)cc1,8,5
Cn1ncc([N+](=O)[O-])c1C(=O)Nc1cccc(C(F)(F)F)c1,-10,-15
Cc1ccc(-c2[nH]ncc2CNc2ccccc2F)cc1,2,1
COc1ccc(C)c2sc(N(CCCn3ccnc3)C(=O)COc3ccccc3)nc12,-12,-18

Reprinted at random: 4 records from the list.
mol,NPYLR7 agonist,NPYLR7 agonist max-min
CCOC(=O)Cc1ccccc1NC(=O)NCc1ccc(F)cc1,8,5
COc1ccc(C)c2sc(N(CCCn3ccnc3)C(=O)COc3ccccc3)nc12,-12,-18
Cn1ncc([N+](=O)[O-])c1C(=O)Nc1cccc(C(F)(F)F)c1,-10,-15
Cc1cc(C(F)(F)F)nc(CCNc2nc(C)nc3c2cnn3C)n1,-4,-5

(cont.)
mol,NPYLR7 agonist,NPYLR7 agonist max-min
CCOC(=O)C(C#N)=Cc1ccc(F)cc1,-1,-3
Cc1nc2ccc(Cl)cn2c(=O)c1NC(=O)C(c1ccccc1)c1ccccc1,4,3
CCCOCCCNC(=O)c1cc(N2CCSCC2)nc2ccccc12,21,29
CC(C)COc1nc(-c2ccccc2F)n(-c2cccc(NC(=O)c3cccc(F)c3)c2)n1,-1,3
Cc1noc(N)c1C(=O)OC(C)C(=O)NCC(F)(F)F (stereo not drawn),-1,-4
CC(C)(C)OC(=O)NCC1CCC(C(=O)N2CCC(c3ccc(F)cc3)CC2)CC1 (stereo not drawn),20,4
CCOC(=O)c1c(CN2CCOCC2)oc2c1c(Cl)c(OC(C)=O)c1ccccc12,1,2
CCOc1ccc(-n2nnnc2CNC(=O)NCCc2ccc(OC)cc2)cc1,13,13
CC(C)Cc1noc(CN(C)c2nc(-c3ccccc3)nc3c2CCNC3)n1,22,11
O=C(O)c1ccc(C2CCN(C(=O)CCc3ccncc3)C2)cc1 (stereo not drawn),4,3
Cc1cn2c3c(=O)n(Cc4ccccc4F)c(=O)n(C)c3nc2n1CCCl,-7,-7
COc1cc(C)c(C)cc1S(=O)(=O)Nc1cccc(-c2ccc(N3CCCC3)nn2)c1,-4,-5
Cc1cccnc1CCNC(=O)C1CCC(=O)N(Cc2ccccn2)C1 (stereo not drawn),12,5
COc1cc(OC)c(CNC(=O)c2ccc(-c3cc(-c4cccc5c4OCCO5)[nH]n3)cc2)c(OC)c1,6,-1
CCN(CC)c1onc(-c2ccccc2)c1CN(CCN(C)C)C(C)=O,5,4
COc1cccc(-c2ccc(SCC(=O)NC3CCCCC3)nn2)c1,-2,-3
O=C(COc1ccc(Cl)cc1)NCc1ccccc1CN1CCOCC1,3,0
CCOc1ccc(NC(=O)N(CCCOC)Cc2cccn2Cc2cccc(C(F)(F)F)c2)cc1,-7,-1
CCn1c(C2CCCN(c3ncnc4nc[nH]c34)C2)n[nH]c1=O (stereo not drawn),1,-2
CN(Cc1ccccc1)c1ncccc1CNC(=O)CN1CCOC1=O,9,6

Quoted from the listing:
`CN(Cc1ccccc1)c1ncccc1CNC(=O)CN1CCOC1=O` | NPYLR7 agonist = 9
`COc1cc(OC)c(CNC(=O)c2ccc(-c3cc(-c4cccc5c4OCCO5)[nH]n3)cc2)c(OC)c1` | NPYLR7 agonist max-min = -1

Next section.
mol,NPYLR7 agonist,NPYLR7 agonist max-min
N#Cc1ccc(NCC2CCS(=O)(=O)C2)c(C(F)(F)F)c1 (stereo not drawn),-19,-19
Nc1cccc(Oc2c(F)c(F)c(Oc3cccc(N)c3)c(F)c2F)c1,-5,-4
COc1cc2c(cc1OC)C(c1cccc(C(F)(F)F)c1)N(C(=O)C=C(C)C)CC2 (stereo not drawn),11,4
COCC(=O)N(Cc1ccc(OS(=O)(=O)c2ccc(OC)cc2)cc1)C(C)C,7,17

Of the compounds above, these have a nitro group on carbon:
mol,NPYLR7 agonist,NPYLR7 agonist max-min
Cc1cccc2sc(N(CCN3CCOCC3)C(=O)c3cccc([N+](=O)[O-])c3)nc12,14,5
Cn1ncc([N+](=O)[O-])c1C(=O)Nc1cccc(C(F)(F)F)c1,-10,-15
